# HPGD inh – HPGD (human) dehydrogenase inhibition; P15428; purified HPGD, NADH fluorescence kinetic, PGE2 substrate; Potency, µM, for the others: top-dose activity change, negative = inhibition, most hits filed as inhibitors; 150,000 compounds, 4.3% hits; AID 894; active = well fitted inhibition curve with a large enough effect (not every such curve was filed as active); inconclusive = small, poorly fitted or top-dose-only effect, or another doubt; inactive = no such curve, though single readings can be large or run the other way;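 note: top concentration of the series not given in the record; plate controls included wells without enzyme; inactives centre near -10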
# Target sequence (P15428 whole entry, looked up): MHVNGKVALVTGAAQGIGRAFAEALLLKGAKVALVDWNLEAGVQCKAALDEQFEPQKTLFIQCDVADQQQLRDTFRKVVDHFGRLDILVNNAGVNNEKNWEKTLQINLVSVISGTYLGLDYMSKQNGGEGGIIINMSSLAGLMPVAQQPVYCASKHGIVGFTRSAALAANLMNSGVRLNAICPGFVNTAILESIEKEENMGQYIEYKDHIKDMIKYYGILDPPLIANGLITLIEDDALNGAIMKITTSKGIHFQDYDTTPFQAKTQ
#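 20 nM HPGD preincubated 15 min at room temperature with compound in 50 mM Tris-HCl pH 8, 0.01% Tween 20. Started with 1 mM NAD+ and 30 uM prostaglandin E2; NADH fluorescence (360/450 nm) read 5 times over 30-s intervals, last minus first.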
# * marks the source's active call; other numbers are inactive results; ? = inconclusive. % is set by controls: 0 for no effect and ±100 for the full control effect; potency is the fitted concentration of half-maximal effect. The list is partial, so the mix of outcomes need not match the whole.
molecule | HPGD inh
COc1cccc(CNC(=O)C23CN(Cc4ccccc4)CC2C(c2ccc([N+](=O)[O-])cc2)=NO3)c1 (stereo unspecified) | -8%
C=CCOc1ccc(C2N3CC4(C)CN2CC(CCC)(C3)C4=O)cc1 (stereo unspecified) | -5%
CC(=O)OCC(=O)[C@@]1(O)CCC2C3CC[C@H]4CC(O)CC[C@@]4(C)C3C(=O)C[C@]21C (stereo partly specified) | -3%
COc1ccc(OC)c2[nH]c(=O)c(CCNS(=O)(=O)c3ccccc3)cc12 | -26%
CC(=O)c1ccc(NC(=O)c2cccs2)cc1 | -26%
C/C(=N\N=C\c1ccccc1)c1nnn(-c2nonc2N)c1C | -4%
CCc1ccc(N(CC(=O)Nc2ccccc2C(=O)N2CCOCC2)S(C)(=O)=O)cc1 | 3%
Oc1c(Cl)cc(C(c2cc(Cl)c(O)c(Cl)c2)C(c2cc(Cl)c(O)c(Cl)c2)c2cc(Cl)c(O)c(Cl)c2)cc1Cl | -10%

# Following part.
molecule | HPGD inh
COc1cccc(OCc2nc3c4cnn(-c5ccccc5)c4ncn3n2)c1 | ?
COC(=O)c1sc(OC)cc1OCc1ccc(C)cc1 | -4%
COc1cc2nc(SCc3ccc(F)cc3)n(Cc3cccs3)c(=N)c2cc1OC | -16%
Cc1cc(C)nc(N2CCCC(C(=O)NCc3ccccc3)C2)n1 (stereo unspecified) | -25%
COc1ccc(C(=S)NCS(=O)(=O)c2ccc(C)cc2)cc1 | 25µM*
CCCNC(=S)NCc1ccc(Cl)cc1 | -1%
COc1ccc(S(=O)(=O)Nc2cc3c(C(C)=O)c(C)oc3c3ccccc23)cc1 | -4%
COc1ccc2c(c1)CCc1c(C(=O)NCCN3CCOCC3)noc1-2 | -5%

# Next part.
molecule | HPGD inh
CCn1c(SCC(=O)c2ccc3c(c2)OCCO3)nnc1C(C)C | -22%
CCN(Cc1ccccc1)c1ccc(/C=N/N=C(N)N)cc1 | ?
COc1cccc(CS(=O)(=O)c2nnnn2CC(C)C)c1 | -2%
COc1ccc(N2CCN(Cc3nc4c(c(=O)n(C)c(=O)n4C)n3CCc3ccccc3)CC2)cc1 | -11%
O=C(Nc1sc2c(c1C(=O)NCc1ccco1)CCCC2)c1ccc2c(c1)OCO2 | ?
S=c1[nH]nc(-c2ccc3ccccc3n2)n1-c1ccc2ncccc2c1 | 13µM*
O=S(=O)(c1ccc(Br)cc1)N1CCCC1c1nc2ccccc2s1 (stereo unspecified) | -9%
COc1ccc(-n2c(SC)nnc2-c2c[nH]c3ccccc23)cc1 | -9%

# The listing continues:
molecule | HPGD inh
O=C(NCC1CCCO1)c1ccc(COCC(F)(F)C(F)F)cc1 (stereo unspecified) | 14µM*
COC(=O)c1ccc(N2C(=O)CC(SCCN)C2=O)cc1 (stereo unspecified) | -6%
Cc1ccc(-n2ncc3c(Nc4cccc(C(=O)O)c4)ncnc32)cc1 | -20%
O=P(Cc1cc[n+]([O-])cc1)(c1ccccc1)c1ccccc1 | -7%
CN1CC=C2C(C#N)=C(N)C(C#N)(C#N)[C@H](c3ccoc3)[C@H]2C1 | ?
COc1ccc(/C(O)=C2/C(=O)C(=O)N(CCCN(C)C)C2c2ccc(C)o2)cc1Cl (stereo unspecified) | -7%
COc1ccc(CC(=O)Nc2ccc(-c3cn4ccc(C)cc4n3)cc2)cc1 | ?
O=C(Nc1ccc2c(c1)OCCO2)C1CCCN1S(=O)(=O)c1cccc2cccnc12 (stereo unspecified) | -12%

# Following part:
molecule | HPGD inh
COCCCNS(=O)(=O)c1ccc(SC)cc1 | -8%
COC(=O)[C@@H]1C[C@@]2(O)[C@H](O)[C@H](O)[C@H](O)C[C@H]2N1Cc1ccc(C)s1 | -5%
Cc1ccc(CNCCC2=CCCCC2)cc1 | -5%
Cc1ccc(-c2nnc(SCC(=O)Nc3ccc4c(c3)oc3ccccc34)n2C)c(Cl)c1 | -10%
Cn1cccc1C(=O)N1CCC[C@@]2(CCN(c3ccncc3)C2)C1 | -3%
COC(=O)c1c(C)oc2ccc(OC(=O)c3cccs3)cc12 | -18%
OC(COCc1ccc(Cl)cc1)CN1CCN(CC(O)COCc2ccc(Cl)cc2)CC1 (stereo unspecified) | -10%
O=C(CCN1CCN(Cc2ccccc2)CC1)NNC(=O)Cc1ccc(Cl)c(Cl)c1 | -9%

# Exported with each value named: two of the compounds above.
SMILES: COC(=O)[C@@H]1C[C@@]2(O)[C@H](O)[C@H](O)[C@H](O)C[C@H]2N1Cc1ccc(C)s1
- HPGD inh: -5%
SMILES: CC(=O)c1ccc(NC(=O)c2cccs2)cc1
- HPGD inh: -26%

# (listing goes on)
molecule | HPGD inh
CC(=O)NC1(c2ccccc2)CCN(C(=O)N2CCOCC2)CC1 | 1%
COc1ccc(CCC(=O)c2c(O)cc(O[C@@H]3O[C@H](CO)[C@@H](O)[C@H](O)[C@H]3O[C@@H]3O[C@@H](C)[C@H](O)[C@@H](O)[C@H]3O)cc2O)cc1O | -3%
CCN1C(=S)SC(=O)C1=C1C=C(C)N(Cc2ccco2)C(C)=C1 | -29%
CCCCNC(=O)C1CCN(C(=O)Nc2ccc(C)cc2)CC1 | -9%
CCc1ccccc1N(CC(=O)OC)S(C)(=O)=O | -1%
Cc1ccc(C(=O)Nc2nc(=O)n(C)s2)cc1 | 0%
COc1cc(-c2nnc(SCC(=O)Nc3cc(C)on3)n2C)cc(OC)c1O | -2%
O=C(C1=NN[C@@H]2C(=O)N(c3cccc(F)c3)C(=O)[C@H]12)C(c1ccccc1)c1ccccc1 | -13%

# Additional results:
molecule | HPGD inh
Cc1cc(NC(=O)CCc2ccccc2)c([N+](=O)[O-])cc1C | -25%
Cn1cnc2cc(NS(=O)(=O)c3ccc(Br)cc3)ccc21 | -7%
Cc1ccc(COCC(CC(C)C)N2CCN(C(=O)c3cccc(C(F)(F)F)c3)CCC2=O)cc1 (stereo unspecified) | -10%
O=C(CSc1nc(-c2ccccc2)cc(=O)[nH]1)Nc1ccccn1 | -22%
Cc1ccc(SCc2cn3cccnc3n2)cc1 | ?
CC(C)CNS(=O)(=O)c1cc(C(=O)OCC(=O)c2ccc3c(c2)OCCO3)c(Cl)cc1Cl | -9%
CCCN(CCC)S(=O)(=O)c1ccc(C(=O)NCc2ccc3c(c2)OCO3)cc1 | -6%
Cc1cccc2cc(CN(C(=O)c3cccs3)c3ccccc3)c(=O)[nH]c12 | -19%

# (further entries)
molecule | HPGD inh
CCc1nnc(NC(=O)CSc2nnc(C)n2CC2CCCO2)s1 (stereo unspecified) | -12%
COc1cccc(C(=O)c2c[nH]c(C(=O)NCc3ccco3)c2)c1 | -15%
Cc1ccc(Oc2ccc(Cl)cc2NC(=O)c2cnccn2)cc1 | -7%
CCN(CC)C(=O)CN(c1cccc(C(F)(F)F)c1)S(C)(=O)=O | -8%
O=S(=O)(NCC1CCCO1)c1cc(Cl)ccc1Cl (stereo unspecified) | -29%
FC(F)(F)COc1nc(N2CCOCC2)nc(N(c2ccccc2)c2ccccc2)n1 | -27%
O=C(/C=C/c1ccc(O)c(O)c1)OCCc1ccccc1 | ?
CN1/C(=C/C=N/NC(=O)c2ccc([N+](=O)[O-])cc2)C(C)(C)c2ccccc21 | -18%

# Among those listed so far, three contain a CF3 group:
molecule | HPGD inh
Cc1ccc(COCC(CC(C)C)N2CCN(C(=O)c3cccc(C(F)(F)F)c3)CCC2=O)cc1 (stereo unspecified) | -10%
CCN(CC)C(=O)CN(c1cccc(C(F)(F)F)c1)S(C)(=O)=O | -8%
FC(F)(F)COc1nc(N2CCOCC2)nc(N(c2ccccc2)c2ccccc2)n1 | -27%

# Other results
molecule | HPGD inh
O=C(CCCOc1ccccc1)Nc1cccnc1 | -7%
N#Cc1cccc(NC(=O)Nc2cccs2)c1 | -9%
O=C(NCCO)c1ccc(Cc2nc3ccccc3[nH]2)cc1 | 0%
Cc1ccc(C)c(NS(=O)(=O)c2cc(C(N)=O)ccc2C)c1 | -11%
COc1cc2c(cc1OC)/C(=C/C#N)NC(C)(C)C2 | -21%
Cc1ccc(NC(=O)Cn2cccc2)cc1Cl | 16µM*
CCOC(=O)CN1C(=O)N[C@@H](c2cccc(F)c2)C(C(=O)OC)=C1C | -9%
Cc1cc(N2CCN(C(=O)c3ccco3)CC2)n2ncc(-c3ccccc3)c2n1 | -13%

# Next part:
molecule | HPGD inh
C[C@H](OP(=O)(O)O)[C@H](N)C(=O)O | -4%
O=C(CN(C(=O)CCC(=O)Nc1nccs1)c1ccc(F)cc1)NCC1CCCO1 (stereo unspecified) | -9%
COCN(C#N)c1nc(OC)nc(OC)n1 | -11%
CCCCC(CC)C(=O)Nc1ccc(Cl)cn1 (stereo unspecified) | -10%
CCCc1cc(=O)oc2cc(OCC(=O)Nc3ccc4c(c3)OCCO4)ccc12 | -8%
O=C(c1cccnc1)c1cccnc1 | -15%
O=C(Nc1ccccn1)c1cccc(S(=O)(=O)N2CCOCC2)c1 | -3%
CCOC(=O)c1oc2c(O)c(O)ccc2c(=O)c1-c1nncn1-c1ccccc1 | -9%

# The list continues.
molecule | HPGD inh
COC(=O)C1=C(C)N(C)C(=O)NC1c1cc(Cl)c(O)c(OC)c1 (stereo unspecified) | -6%
CCOC(=O)C(Cc1c[nH]c2ccccc12)NC(=O)c1ccco1 (stereo unspecified) | 2%
COc1ccc(C(=O)N/N=C(\c2ccccc2)c2ccccn2)cc1 | -14%
CCCCOc1ccc(N=Cc2cccs2)cc1 | -9%
Cc1cc2c(cc1C)/C(=C\C(N)=O)NC(C)(C)C2 | -8%
COc1ccc(NC(=O)CSc2nc(N)c3cc4c(nc3n2)CCCC4)c(OC)c1 | -16%
CC(OC(=O)c1cc2sccc2n1C)C(=O)NCc1ccc(F)cc1 (stereo unspecified) | -9%
CCOCC(=O)Nc1nnc(Cc2ccc(OC)cc2)s1 | -3%

# Later entries.
molecule | HPGD inh
COc1ccc2nc(Nc3nc(CSc4nnnn4-c4ccccc4)cc(=O)[nH]3)nc(C)c2c1 | -7%
CC(=O)N(C)c1ccc(NC(=S)Nc2ccccc2)cc1 | -8%
O=C1CC(Sc2nnnn2-c2ccccc2)C(=O)N1c1cccc(Cl)c1 (stereo unspecified) | 32µM*
O=C(NCc1ccccc1)C1COc2ccccc2O1 (stereo unspecified) | 11µM*
CC1=C(CC[C@H](C)CO)O[C@@H]2C[C@@H]3[C@H]4CC[C@H]5C[C@@H](O)CC[C@]5(C)[C@@H]4CC(=O)[C@@]3(C)[C@@H]12 | -3%
CCN1C(=O)CC(N2CCN(c3ccc(Cl)cc3)CC2)C1=O (stereo unspecified) | -7%
CC(C)Cn1c(=O)c2ccccc2n2c(SCC(=O)N3c4ccccc4CC3C)nnc12 (stereo unspecified) | ?
O=C(c1ccc2c(c1)OCCO2)N1CCN(Cc2ccccc2)CC1 | -5%

# Next section.
molecule | HPGD inh
Cc1cccc(-c2nc(C#N)c(N3CCCCCC3)o2)c1 | ?
Cc1ccc(S(=O)(=O)N2CCC(O)(c3cccnc3)CC2)cc1 | -20%
O=C1CCC(c2ccc(-n3ccnc3)cc2)=NN1 | -16%
CC(Cc1ccccc1)NC(=O)C1(c2ccccc2)CCOCC1 (stereo unspecified) | 4%
O=C(Nc1ncnc2c1CCC2)C12CC3CC(CC(C3)C1)C2 | -2%
COc1ccc(N2CC(NC(=O)NC(C)(C)C)CC2=O)cc1 (stereo unspecified) | -1%
CCCNS(=O)(=O)c1ccc(CCC(=O)N2CCN(c3ccc(OC)cc3)CC2)cc1 | 3%
CC(C)(C)C1CCc2onc(C(=O)Nc3cnn(Cc4ccc(F)cc4)c3)c2C1 (stereo unspecified) | -9%

# Next results
molecule | HPGD inh
O=C(/C=C/c1ccc(-c2ccccc2[N+](=O)[O-])o1)c1ccc(F)cc1 | ?
CC(=O)Nc1ccc(NS(=O)(=O)c2cn(C)c(=O)n(C)c2=O)cc1 | -10%
NC(=O)CSc1nnc(C2CC2)n1Cc1ccccc1 | -3%
Cc1cc(C)n2c(SCc3ccc(C#N)cc3)nnc2n1 | -14%
CCc1ccc(/C=N/NC(=O)c2cc(C3CC3)nc3ccccc23)s1 | -3%
CCCCN(CC)C(=S)Nc1ccc2nc3n(c(=O)c2c1)CCCCC3 | -2%
Cc1ccccc1OCC(=O)Nc1ccc2c(c1)C(=O)c1ccccc1C2=O | -15%
COc1ccc(C2C(CC(=O)O)=C(O)C(=O)N2c2ccccc2)cc1 (stereo unspecified) | -23%

# (next part)
molecule | HPGD inh
CCOc1ccc(-c2cc(CCCC(=O)NCc3ccco3)no2)cc1 | -15%
COc1cccc(CNC(=O)Cn2nc(-c3ccc(Cl)cc3)ccc2=O)c1 | -4%
COc1cc(NC(=O)c2cccs2)c(C(=O)OCC(=O)c2cc(C)n(-c3ccccc3)c2C)cc1OC | ?
CCc1ccc(NC(=S)Nc2ccc3cn[nH]c3c2)cc1 | -7%
O=C(Nc1ccccc1)c1cc(S(=O)(=O)N2CCOCC2)cs1 | 1%
Cc1ccc(NC(=O)/C(Cl)=C/c2ccccc2)cc1C | -11%
CC(=O)c1ccc(N2CCN(C(=S)Nc3cc(C)ccc3C)CC2)cc1 | -4%
CC1CC(C)CN(S(=O)(=O)c2ccc(Oc3ccc([N+](=O)[O-])cc3)cc2)C1 (stereo unspecified) | -10%

# Next records follow.
molecule | HPGD inh
Cc1cc(C)cc(OCC(=O)N2CCCCCC2)c1 | ?
CCOc1ccc(-c2c(=O)n(OCc3ccc([N+](=O)[O-])cc3)c3ccccc3[n+]2[O-])cc1 | -19%
Cc1ccc(C(=O)N2CCN(c3cc4c(cc3[N+](=O)[O-])n(C)c(=O)n4C)CC2)cc1 | -8%
Cc1ccc(-c2nnc(Cc3ccc(Cl)cc3)o2)cc1 | -18%
COc1ccc(C(c2nnnn2C2CCCC2)N2CCC(C)CC2)cc1 (stereo unspecified) | -1%
CC(=O)c1cnc2c(-c3cccc(Br)c3)cnn2c1C | -10%

# A run of entries of the results above, for reference:
molecule | HPGD inh
COc1ccc(C(c2nnnn2C2CCCC2)N2CCC(C)CC2)cc1 (stereo unspecified) | -1%
CC(=O)c1cnc2c(-c3cccc(Br)c3)cnn2c1C | -10%
